HPGD inh: HPGD (human) dehydrogenase inhibition; purified HPGD, NADH fluorescence kinetic, PGE2 substrate; AID 894; P15428; 4.3% of 150,000 active; Potency, µM, for inactives: at the highest dose activity change, negative = inhibition, actives largely listed as inhibitors; active = well fitted inhibition curve with a large enough effect (not every such curve was filed as active); inconclusive = small, poorly fitted or top-dose-only effect, or another doubt; inactive = no such curve, though single readings can be large or run the other way;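 also: top concentration of the series not given in the record; plate controls included wells without enzyme; inactives centre near -10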
Target sequence (P15428 whole entry, looked up): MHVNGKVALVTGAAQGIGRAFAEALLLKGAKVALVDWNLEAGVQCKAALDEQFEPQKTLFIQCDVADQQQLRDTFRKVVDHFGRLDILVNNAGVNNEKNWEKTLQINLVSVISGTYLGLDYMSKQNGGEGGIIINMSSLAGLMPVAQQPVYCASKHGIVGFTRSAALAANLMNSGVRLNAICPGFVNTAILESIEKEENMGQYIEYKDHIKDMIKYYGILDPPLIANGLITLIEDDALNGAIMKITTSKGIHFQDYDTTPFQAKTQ
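NADH formation kinetics: reaction with 30 uM PGE2 and 1 mM NAD+ (final), 20 nM enzyme, Tris-HCl pH 8 with Tween 20, after 15 min compound preincubation at room temperature. Fluorescence change, last versus first of five reads.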
Numbers without * were called inactive; ? = inconclusive. % is scaled to controls: 0 for no effect and ±100 for the full control effect; potency is read from the fitted curve at half-maximal effect. These rows are one share of the data. The share of hits here may be higher or lower than overall.

SMILES	HPGD inh
COc1ccc(OC)c(C2C(C#N)=C(N)Oc3cc(C)n(Cc4ccccn4)c(=O)c32)c1 (centres undefined)	-6%
COC(=O)c1ccccc1OCCCOc1ccc(C=O)cc1OC	?
Cc1cc(C(=O)CSc2nn3c(=O)c(C(C)(C)C)nnc3s2)c(C)n1-c1ccc(F)cc1	-13%
Cc1ccc(NC(=O)c2ccc(Cn3cc([N+](=O)[O-])cn3)cc2)c(C)c1	-12%
CC1CN(C(=O)CSc2nnc3c(Cl)cc(Cl)cn23)CC(C)O1 (centres undefined)	-12%
CCC(C(=O)Nc1cccc(C(F)(F)F)c1)c1ccccc1 (centres undefined)	-19%
CCOC(=O)c1cc(NC(=O)c2ccc(C)cc2)c(=O)oc1-c1ccccc1	-11%
CCn1c(-c2ccccc2Cl)nn(CC(=O)Nc2cc(Cl)ccc2Cl)c1=S	-4%
CCOC(=O)c1c(NC(=O)CN2C(=O)NC3(CCCCCC3)C2=O)sc(C)c1-c1ccc(C)cc1	-9%
O=C(CN1CCN(c2ccccc2O)CC1)NC(=O)NCc1ccco1	-6%
NCCC[C@@H](CC(=O)N[C@@H]1CCNC[C@H]1C(=O)N[C@H](CC(=O)N[C@@H](CCC(=O)O)CC(=O)O)Cc1ccccc1)NC(=O)C[C@H](Cc1ccccc1)NC(=O)[C@@H]1CNCC[C@H]1N	-6%
NC(=O)c1sc2nc(N3CCOCC3)c3c(c2c1N)CCCC3	?
O=c1[nH]c2cccnc2n1Cc1ccco1	-12%
COC(=O)NCC(c1cccnc1)N1CCOCC1 (centres undefined)	-2%
CCc1ccc(/C=N/NC(=O)c2cc(C3CC3)nc3ccc(Br)cc23)s1	-14%
CC1=C(CC(=O)c2ccccc2)C(=O)c2ccccc2C1=O	-9%
CCCC[n+]1ccn(C2=C([O-])c3ccccc3C(=O)/C2=N\S(=O)(=O)c2ccc(Br)cc2)c1	-15%
CCOc1ccccc1C(C(=O)NC1CCCC1)N(Cc1ccco1)C(=O)CNC(=O)c1ccco1 (centres undefined)	-6%
COc1ccc(CNc2nc3c(c(=O)n(Cc4ccc(Cl)cc4)c(=O)n3C)n2C)cc1	-19%
N#CC(C(=O)NC1CC1)c1nc2ccccc2nc1N1CCCC1 (centres undefined)	-24%

Taken from the entries so far, 2 compounds:
SMILES	HPGD inh
CCOc1ccccc1C(C(=O)NC1CCCC1)N(Cc1ccco1)C(=O)CNC(=O)c1ccco1 (centres undefined)	-6%
COc1ccc(CNc2nc3c(c(=O)n(Cc4ccc(Cl)cc4)c(=O)n3C)n2C)cc1	-19%

Continuation:
SMILES	HPGD inh
CCN1CCN(CC(O)COC(C)C)CC1 (centres undefined)	-8%
CCOCCCNC(=O)C(NC(=O)c1ccc(=O)[nH]c1)c1ccc(C)cc1 (centres undefined)	3%
Clc1ccc([C@H](Cn2ccnc2)OCc2c(Cl)cccc2Cl)c(Cl)c1	-5%
O=C(O)CCCSc1nc2ccccc2s1	-24%
C=CCN1C(=O)CSc2ccc(C(=O)NCc3ccco3)cc21	-15%
COc1ccc(C2C(C#N)=C(N)N(c3ccccc3)C3=C2C(=O)CCC3)cc1Cn1cc([N+](=O)[O-])cn1 (centres undefined)	1%
O=C(CCCCCn1c(=O)[nH]c2ccsc2c1=O)NCc1ccc(F)cc1	-19%
CCCNC(=O)c1nc(C)c(C)nc1C(=O)Nc1cccc(Cl)c1	4%
COCCn1c(=O)c(-c2ccc(OC)cc2)nc2cnc(Nc3ccccc3)nc21	-2%
COc1ccccc1N1CCN(C(=O)CCCCn2c(=O)[nH]c3ccsc3c2=O)CC1	-5%
COc1ccc(C(=O)/C=C(\C)NCc2ccc3c(c2)OCO3)cc1	-12%
COc1ccc(N(CC(=O)Nc2ccc(C)cn2)S(=O)(=O)c2c(C)nn(C)c2C)cc1	-8%
C=CCn1c(Sc2nc(C)cs2)nc2c1c(=O)[nH]c(=O)n2C	-4%
CCC(=O)Nc1ccccc1C(=O)OCC(=O)c1cccc2ccccc12	-10%
Cc1onc(-c2ccccc2)c1C(=O)NNC(=S)NC(=O)c1ccc(Br)cc1	-7%
COc1ccccc1N=c1sc2ccccc2n1C	-16%
COc1ccc(CC(=O)Nc2nc3ccccc3s2)cc1S(=O)(=O)N1CCOCC1	-2%
CCOC(=O)c1[nH]c(C)c(C(=O)Nc2ccc(F)cc2)c1C	-4%
Cc1cc(C)c(C)c(S(=O)(=O)NCCC(=O)O)c1C	-1%
O=C(Oc1ccccc1)N1CCC2(CCCN(c3cccc(-c4ccccc4)c3)C2)CC1	-15%
COc1ccc2[nH]c(=O)c(COC(=O)c3cccs3)cc2c1	-11%
CC(C)NS(=O)(=O)c1ccc(CCC(=O)NCc2cccnc2)cc1	6%
CCOC(=O)C1CCN(c2ncnc3c2cnn3-c2ccc(Cl)cc2)CC1	?
COc1nc(C)ccc1-c1noc(-c2ccccn2)n1	22µM*
CC1Cc2ccccc2N1c1ncnc2nc[nH]c12 (centres undefined)	-4%
O=C(Nc1cccc(O)c1)c1ccc(Br)cc1	-1%
N#Cc1c(C(F)(F)F)cc(-c2cccs2)nc1SCc1ccc(Cl)nc1	?
COc1cc(OC)cc(-c2nnc(SCC(=O)N3CCCCC3)o2)c1	25µM*
CCN(CC)C(=O)CSc1nnc(-c2ccco2)o1	-10%
Cc1cc(NC(=O)c2ccccc2-c2ccccc2C(=O)O)no1	-9%
COc1ccccc1CNC(=O)C(CC(C)C)NC(=O)C1CCC(C)CC1 (centres undefined)	-9%
CC1=CCC2CC1C2(C)C (centres undefined)	-1%
O=C(Cn1nc(-c2ccc(Cl)cc2)ccc1=O)NCc1ccc2c(c1)OCO2	-7%
O=S(=O)(c1ccc(Br)cc1)N1CCCN(Cc2ccccc2F)CC1	-12%
CCOC(=O)C(c1ccccc1)N1CCN(c2ccc(OC)cc2)CC1 (centres undefined)	-12%
COc1ccc(C(=O)Nc2nc(-c3ccc(S(=O)(=O)N4CCOCC4)cc3)cs2)cc1	-14%
CCOC(=O)c1c(C)n(CC)c2ccc(OC(=O)c3ccc([N+](=O)[O-])cc3)cc12	-7%
COc1ccc(CCNC(=O)c2ccc(CS(=O)(=O)c3ccc(C)cc3)o2)cc1OC	-6%
COc1ccccc1CNc1ccnc(-c2ccc3c(c2)OCO3)n1	-8%
Cc1cc(=O)[nH]c(SCC(=O)N2CCCCCC2)n1	-14%
CS(=O)(=O)c1ccc2c(c1)SC1=NC(=O)/C(=C/c3ccco3)C(=N)N12	?
Cc1onc(-c2ccccc2)c1C(=O)n1cc(Br)cn1	-24%
CC(C)c1ccc(NC(=O)N(CCc2nc3ccccc3[nH]2)C2CCCC2)cc1	-15%
CCc1nnc(NC(=O)CN2CCOCC2)s1	-4%
COc1ccccc1NC(=O)c1ccc(NC(=O)COC(=O)C2CCCCC2)cc1	-9%
O=C(NC1CCCCC1NC(=O)c1ccco1)c1ccco1 (centres undefined)	-9%
COC(=O)[C@@H](NC(=O)Nc1cccc(OC)c1)C(C)C	-12%
O=C(Cn1ccc(C(F)(F)F)n1)Nc1ccc(S(=O)(=O)NCc2ccco2)cc1	-12%
COc1cc2c(cc1OC)CN(c1ccc(-c3ccccc3OC)nn1)CC2	35µM*
COc1ccccc1CNC(=O)COc1ccccc1OC	-9%

Further records follow:
SMILES	HPGD inh
Oc1ccc(N=Nc2cccc(Cl)c2)cc1C=Nc1ccc(N2CCOCC2)cc1	-26%
CC12CCC(C(=O)N3CCN(c4ccccc4)CC3)(CC1=O)C2(C)C (centres undefined)	-13%
Cc1oc2c(CN3CCCC3)c(O)ccc2c(=O)c1-c1ccccc1	?
Cc1oc2c(c1C(=O)c1ccc(Cl)cc1)C(=O)C(=O)c1ccccc1-2	-26%
O=C(C1=C(O)C(=O)N(c2ncccn2)C1c1ccc(Cl)c(Cl)c1)c1ccco1 (centres undefined)	?
CCCn1c2c(c(=N)c3c1CCC3)CCCC2	-1%
Cc1ccc(CN2CC(C(=O)Nc3cc(S(C)(=O)=O)ccc3Cl)CC2=O)cc1 (centres undefined)	-24%
CC(C)(C)c1cc(C(=O)NCC(=O)OCC(=O)c2cccc([N+](=O)[O-])c2)cc(C(C)(C)C)c1	-4%
COc1ccc(C(=O)N2CCC[C@@]3(CCN(Cc4ccccc4OC)C3)C2)cc1	0%
COc1nc2ccccc2cc1-c1noc(-c2cccnc2)n1	?
CC(C)(C)c1nnc(N/N=C/c2ccc(O)cc2)n(N)c1=O	-10%
CCOC(=O)N1CCN(C(=O)c2ccc3c(=O)n(CCOC)c(=O)[nH]c3c2)CC1	?
CC(C)=CCC/C(C)=C/COc1c2occc2cc2ccc(=O)oc12	?
COc1cc(NC(=O)CN(c2ccc(C)cc2)S(=O)(=O)c2c(C)n[nH]c2C)cc(OC)c1	-9%
CC(=O)OCCCNc1cc(Sc2nc3ccccc3s2)c2nonc2c1[N+](=O)[O-]	2.5µM*
COc1ccc(/C=C/C(=O)NC(=S)Nc2ccccc2C(=O)NC2CCCCC2)cc1	-3%
COc1ccccc1NC(=O)Cn1c(=O)n(-c2ccccc2)c(=O)c2oc3ccccc3c21	-18%
CC1Cc2ccccc2N1S(=O)(=O)c1cccc(C(=O)OCC(=O)NC2CCS(=O)(=O)C2)c1 (centres undefined)	-20%
c1cnc2c(SCc3ccc(-c4nnco4)cc3)cccc2c1	?
CCOC(=O)Cn1nc(C)c(-c2ccccc2)c1N	-3%

An excerpt of these results, field by field:
> COc1ccccc1CNC(=O)C(CC(C)C)NC(=O)C1CCC(C)CC1 (centres undefined)
  HPGD inh = -9%
> CC1=CCC2CC1C2(C)C (centres undefined)
  HPGD inh = -1%

Returning to the listing, repeating the five entries before the break.
SMILES	HPGD inh
COc1ccc(/C=C/C(=O)NC(=S)Nc2ccccc2C(=O)NC2CCCCC2)cc1	-3%
COc1ccccc1NC(=O)Cn1c(=O)n(-c2ccccc2)c(=O)c2oc3ccccc3c21	-18%
CC1Cc2ccccc2N1S(=O)(=O)c1cccc(C(=O)OCC(=O)NC2CCS(=O)(=O)C2)c1 (centres undefined)	-20%
c1cnc2c(SCc3ccc(-c4nnco4)cc3)cccc2c1	?
CCOC(=O)Cn1nc(C)c(-c2ccccc2)c1N	-3%
O=C(c1scc2c1CCCC2)N1CCOCC1	-8%
CC(=O)OC1COC(N2CCc3cc([N+](=O)[O-])ccc32)C(OC(C)=O)C1OC(C)=O (centres undefined)	-4%
CN(C)S(=O)(=O)c1cccc(NC(=O)COc2nc3ccccc3nc2N2CCOCC2)c1	-13%
O=C(Cc1cccs1)Nc1ccc(N2CCOCC2)cc1	-14%
O=C(CN1CCN(c2nc(-c3ccc(F)cc3)cs2)CC1)Nc1ccc2c(c1)OCO2	-6%
COc1ccc(CN(C(=O)c2cnccn2)C(C(=O)NC(C)(C)C)c2cc(OC)c(OC)c(OC)c2)cc1 (centres undefined)	-1%
Cn1c(N)c(C(=O)COC(=O)[C@H](Cc2ccccc2)N2C(=O)c3ccccc3C2=O)c(=O)n(C)c1=O	-10%
CSc1ccccc1NC(=O)c1ccc(Cl)s1	20µM*
O=C(Oc1cccc(NC(=O)c2ccccc2Cl)c1)c1ccc([N+](=O)[O-])cc1	-16%
N=c1c(C(=O)NC2CCCC2)cc2c(=O)n3ccccc3nc2n1CCN1CCOCC1	?
O=c1c2cnn(-c3ccccc3)c2nc(-c2cccs2)n1-c1ccc(Br)cc1	-5%
CN1/C(=C\C(=O)COC(=O)CNC(=O)c2ccc3ccccc3c2)C(C)(C)c2ccccc21	-24%
COc1ccc(NC(=O)Nc2ccc3c(c2)N(C)C(=O)CS3)cc1OC	-7%
O=[N+]([O-])c1ccccc1S(=O)(=O)NCCC1=CCCCC1	-8%
Cc1onc(-c2ccccc2Cl)c1C(=O)Nc1nnc(C(C)C)s1	-3%
Cc1cnc(C(=O)OCC(=O)Nc2oc(-c3ccccc3)c(-c3ccccc3)c2C#N)cn1	-2%
O=C(NCC(c1cccnc1)N1CCN(c2ccc(F)cc2)CC1)c1ccccc1 (centres undefined)	-4%
CCOc1ccc(-n2c(SCc3nc(-c4cccs4)no3)nnc2-c2ccncc2)cc1	-21%
CSc1nc2ccc(S(N)(=O)=O)cc2s1	0%
O=C(CCNS(=O)(=O)c1ccc(Cl)cc1)NCc1ccccn1	-13%
Cc1ccc(NC(=O)CSc2nnc(-c3ccccn3)n2C)cc1	0%
COc1ccc(CNC(=O)COC(=O)CCOc2ccccc2)cc1	-15%
CC(C)NC(=S)N/N=C1\CCCCc2ccccc21	-10%
COC(=O)c1cc(COC(=O)c2ccc3ccccc3n2)oc1C	-6%
COc1cc(/C=N/NC(=S)NCCN2CCOCC2)cc(OC)c1O	?
Cc1ccc2[nH]c(=O)c(CN(CCCN(C)C)C(=O)Nc3cccc(Cl)c3)cc2c1	-1%
O=C(Nc1ccc(F)cc1)N1CCN(c2ccc3nnc(-c4ccc(F)cc4)n3n2)CC1	?
O=C(Nc1ccc(S(=O)(=O)N2CCOCC2)cc1)c1ccc(CN2CCc3ccccc3C2)cc1	-14%
Cc1cc(C)cc(N(CCC(=O)O)S(=O)(=O)c2ccc(Cl)cc2)c1	3%
CN(C)Cc1ccccc1-c1ccc2ncnc(NCc3cccs3)c2c1	-27%
c1ccc(OCCOCCN2CCc3ccccc3C2)cc1	-6%
COc1ccc(C(=O)CSc2nn3c(=O)c(C(C)(C)C)nnc3s2)cc1	-16%
CC(C)Sc1nc2c(c(=O)[nH]c(=O)n2C)n1Cc1ccc(Cl)cc1	?
Cc1csc2nc(CNS(=O)(=O)c3ccc4c(c3)OCCO4)cn12	3%
COc1ccc(C[C@@](C)(N)C(=O)O)cc1OC	-1%
O=S(=O)(N1CCCCCC1)N1CCN(S(=O)(=O)N2CCOCC2)CC1	1%

Bioassay records: PubChem BioAssay, National Center for Advancing Translational Sciences (NCATS)
